VACV Venus inh: inhibitors of vaccinia virus (Venus reporter); AID 720580; Vaccinia virus Venus reporter expression, fluorescence; Potency, µM (doses to about 36.5 µM), for inactives: at the highest dose activity change, negative = inhibition, actives largely listed as inhibitors; 330,000 tested, 0.46% active; active means well fitted inhibition curve with a large enough effect; inconclusive means small, poorly fitted or top-dose-only effect; inactive means no such curve, though single readings can be large or run the other way; tested in A549 cells; further: nearly all actives have a fitted effect of over 30% in size; inactives centre near -10
Vaccinia mCherry: vaccinia inhibition (mCherry reporter) | Vaccinia virus mCherry reporter infection, fluorescence; about a quarter of the inactives have no number | Potency, µM (top dose mostly 36.5 µM), for inactives: at the top dose activity change, negative = inhibition, hits mostly inhibitors | 310,000 tested, 0.63% active; active = well fitted inhibition curve with a large enough effect; inconclusive = small, poorly fitted or top-dose-only effect; inactive = no such curve, though single readings can be large or run the other way; tested in A549 cells; further: nearly all actives have a fitted effect of over 35% in size; inactives centre near -10
* marks the source's active call; other numbers are inactive results; i = inactive; ? = inconclusive; nt = no result given; & = joins results of further samples; [ ] = another dose, or the depositor's remark. On the % scale 0 is the no-effect control and ±100 the full control effect; potency means the concentration at half of the fitted maximal effect.

SMILES | VACV Venus inh | Vaccinia mCherry
CC1=NNC(=O)C1Cc1ccccc1 (centres undefined) | -7% | i
COC(=O)C1=C(c2cc3ccccc3s2)C[C@@H]2CC[C@H]1N2C(=O)NC(C)C | -27% | -9%
N#CCCn1cc(C(=O)O)c(-c2cccc([N+](=O)[O-])c2)n1 | -1% | 4%
COc1ccc(C(=O)c2ccc(N3CCN(C(=O)c4ccc(F)cc4)CC3)c(F)c2)cc1Br | -17% | -8%[1.46 µM]
CCOc1ccc(C2=CC(c3cccc(Br)c3)n3c(nc4ccccc43)N2)cc1Cl (centres undefined) | 68%[activator] | -22%
COc1ccc(-c2nc(NC3=NCCCCC3)sc2C)cc1 | -10% | -5%
C/C(=N\NC(=O)c1cc(C)[nH]n1)C(C)(C)C | 2% | i
C=CCC1NS(=O)(=O)OCC1C(C)C (centres undefined) | -15% | -11%
Cc1cccc(N2CCN(CCCNc3ncnc4onc(-c5ccc(F)cc5)c34)CC2C)c1 (centres undefined) | -8% | -15%
CC1CCN(C(=S)Nc2ccc(SC(F)F)cc2)CC1 | -15% | -26%
CC(=O)N1CCC(=NNC(=O)c2cccs2)CC1 | 1% | -6%
CCOc1cc2c(cc1/C=C1/NC(=O)N(CC(=O)OC)C1=O)OCO2 | -19% | -13%
Cc1nc(C)c(-c2ccc(SCC(=O)Nc3cccc(F)c3)nn2)s1 | -22% | ?
CCN1CCN(c2ncc3c(n2)CCN(Cc2cc(F)cc(F)c2)C3)CC1 | ? | ?
O=C(CCC(=O)NNc1nc2ccccc2c2nc(-c3ccccc3)nn12)NCCCN1CCCC1=O | -1% | -1%
COCCn1c(Cc2ccccc2)nnc1SCc1nc2ccccc2c(=O)[nH]1 | -16% | nt
COc1ccc(NC(=O)c2cc(C3CCCCN3C(=O)c3ccc4c(c3)CCO4)on2)c(C)c1 (centres undefined) | -8% | 8%
O=C(NCCCC1CCCC1)C1CCC(=O)N(Cc2cccc(C(F)(F)F)c2)C1 (centres undefined) | ? | -12%
Cc1c(NS(=O)(=O)c2cccc(C(=O)NCc3cccc(Cl)c3)c2)c(=O)n(-c2ccccc2)n1C | -12% | -4%
Cc1cc2nc(CS(=O)(=O)c3ccccc3)cc(=O)n2[nH]1 | -4% | -1%
CN(C)/C=N/S(=O)(=O)c1cccn1-c1ncc(C(F)(F)F)cc1Cl | -6% | i
C=CCNC(=S)N/N=C/c1ccc(-c2ccc(Br)cc2)o1 | -21% | -2%
Cc1ccc(-c2nc(CS(=O)(=O)CC(=O)NC(C)CCc3ccccc3)c(C)o2)cc1 (centres undefined) | -22% | -23%
COc1ccc(OC)c(NC(=O)C(C)n2nc(C)c3c(C)n(-c4ccccc4)nc3c2=O)c1 (centres undefined) | -12% | -12%
COc1ccc(CCNC(=O)COC(=O)c2ccc(N3CCCC3=O)cc2)cc1 | -4% | i
Nc1nc(SCc2ccc3c(c2)OCO3)n[nH]1 | 4% | 1%
C[C@@H]1CN([C@@H](C)CO)C(=O)CCCn2nncc2CO[C@@H]1CN(C)S(=O)(=O)c1ccc(-n2cccn2)cc1 | -15% | -7%
CC12CCC(C(=O)Nc3cc(F)ccc3F)(CC1=O)C2(C)C (centres undefined) | -3% | -14%
CCOC(=O)c1cc2c(=O)n3ccccc3nc2n(Cc2ccco2)c1=NC(=O)c1c(F)cccc1Cl | -25% | ?
N#Cc1ccc(N[C@@H]2CCN3C(=O)c4ccccc4[C@@H]3C[C@H]2O)cc1 | -4% | i
CCCCN(CC)CCCNC(=O)Cn1ncc2c3ccccc3n(Cc3ccc(F)cc3)c2c1=O | -21% | -16%
CCC(C)(C)NC(=O)C(c1ccc(C)cc1)N(CCN1CCOCC1)C(=O)CNC(=O)c1cccs1 (centres undefined) | 1% | 6%
CN1CCN(S(=O)(=O)c2cccc(C(=O)N(C)C(c3ccccc3)c3ccccc3)c2)CC1 | -17% | -2%
COc1cccc(NC(=O)C(Cc2ccccc2)NS(=O)(=O)c2ccc3c(c2)oc(=O)n3C)c1 (centres undefined) | 6% | -14%
COCCNC(=O)C(c1ccc(O)cc1)N(Cc1cccs1)C(=O)CCC(=O)Nc1ccccn1 (centres undefined) | -1% | i
CCCN1CCN(C(=O)CCc2nnc3ccc(N4CCN(c5cccc(OC)c5)CC4)nn23)CC1 | -3% | 2%
O=C(O)CCn1[nH]c(=O)ccc1=O | -7% | -10%
COC(=O)c1c(NC(=O)c2ccc(S(=O)(=O)N3CC(C)OC(C)C3)cc2)sc2c1CCN(C)C2 (centres undefined) | ? | ?
Cc1cc(Nc2ccccc2)nc(N2CCN(C(=O)c3ccc4c(c3)OCO4)CC2)n1 | -11% | -13%
Cc1ccc(C(=O)NCc2ccco2)cc1S(=O)(=O)N1CCOCC1 | -19% | -16%

Some of these compounds in order of number of heavy atoms, smallest number first.
SMILES | VACV Venus inh | Vaccinia mCherry
O=C(O)CCn1[nH]c(=O)ccc1=O | -7% | -10%
Nc1nc(SCc2ccc3c(c2)OCO3)n[nH]1 | 4% | 1%
CC12CCC(C(=O)Nc3cc(F)ccc3F)(CC1=O)C2(C)C (centres undefined) | -3% | -14%
Cc1ccc(C(=O)NCc2ccco2)cc1S(=O)(=O)N1CCOCC1 | -19% | -16%
COc1ccc(CCNC(=O)COC(=O)c2ccc(N3CCCC3=O)cc2)cc1 | -4% | i
Cc1cc(Nc2ccccc2)nc(N2CCN(C(=O)c3ccc4c(c3)OCO4)CC2)n1 | -11% | -13%
CN1CCN(S(=O)(=O)c2cccc(C(=O)N(C)C(c3ccccc3)c3ccccc3)c2)CC1 | -17% | -2%
COC(=O)c1c(NC(=O)c2ccc(S(=O)(=O)N3CC(C)OC(C)C3)cc2)sc2c1CCN(C)C2 (centres undefined) | ? | ?
COCCNC(=O)C(c1ccc(O)cc1)N(Cc1cccs1)C(=O)CCC(=O)Nc1ccccn1 (centres undefined) | -1% | i
CCC(C)(C)NC(=O)C(c1ccc(C)cc1)N(CCN1CCOCC1)C(=O)CNC(=O)c1cccs1 (centres undefined) | 1% | 6%
CCOC(=O)c1cc2c(=O)n3ccccc3nc2n(Cc2ccco2)c1=NC(=O)c1c(F)cccc1Cl | -25% | ?
C[C@@H]1CN([C@@H](C)CO)C(=O)CCCn2nncc2CO[C@@H]1CN(C)S(=O)(=O)c1ccc(-n2cccn2)cc1 | -15% | -7%

(cont.)
SMILES | VACV Venus inh | Vaccinia mCherry
O=S1(=O)CCOC[C@H](CC2CCCCC2)N1Cc1ccccc1 | -11%&-15% | -6%&-16%
CCC(=O)Nc1nc2c(OC)ccc(OC)c2s1 | -6% | -30%
Cc1cccc(C(=O)OC(C)CN2CCN(C)CC2)c1 (centres undefined) | -12% | i
CCOc1ccc2ccccc2c1C1NC(=O)NC(C)=C1C(=O)OCCOC (centres undefined) | -19% | -21%
Cc1c(NC(=O)CSc2nc3ccccc3s2)c(=O)n(-c2ccccc2)n1C | -13% | -23%
O=C(NC(c1ccccc1)c1ccc2ccccc2n1)C1CCN(Cc2cccc(C(F)(F)F)c2)CC1 (centres undefined) | -29% | -16%
COc1ccc(/C=N/n2c(-c3n[nH]c4c3CCC4)n[nH]c2=S)cc1 | -25% | -12%
C[C@H](CO)N1C[C@H](C)[C@@H](CN(C)C(=O)c2cc(-c3ccccc3)on2)OCc2cn(nn2)CCCC1=O | -1% | i
COC(=O)c1cc(Br)ccc1NC(=O)CCNC(=O)c1ccco1 | 3% | 3%
Cc1ccc(S(=O)(=O)N(Cc2ccc(Cl)cc2)c2ccccc2C(=O)NCc2ccco2)cc1 | -28% | i
O=C(CSc1nnc(CNc2ccccc2)o1)c1ccc2c(c1)OCCO2 | -4% | -29%
CS(=O)(=O)N1CCN(c2ccc([N+](=O)[O-])cc2F)CC1 | -14% | -11%
CC1CCCCC1NC(=O)c1ccc2c(c1)[nH]c(=O)n2C1CCCC1 (centres undefined) | -8% | i
CN1CCc2c(sc3nc(NN)n(-c4ccc(Cl)cc4)c(=O)c23)C1 | -8% | -8%
COc1ccc(C(=O)NN2C(=O)C3C4C=CC(O4)C3C2=O)cc1 (centres undefined) | -7% | nt
COc1ccc(-c2oc3ccc(-c4cc(OC)c(OC)c(OC)c4)cc3c2C#Cc2ccsc2)cc1 | -5% | i
Cc1ccc(S(=O)(=O)N[C@@H](CCCCN)C(=O)CCl)cc1 | 2% | -15%
O=C(NC1CC1)c1cccc(NC(=O)c2cn3ccccc3n2)c1 | -10% | -7%
CC(C)Oc1ccc(CNC(=O)Nc2ccc3c(c2)N(C)C(=O)c2ccccc2S3)cc1 | ? | ?
Cc1ccc2nc(/C(C#N)=C/c3cn[nH]c3-c3ccc(F)cc3)[nH]c2c1 | ? | ?
O=c1[nH]c2c(c(=O)n1-c1ccccc1)CCO2 | -13% | i
COCCCn1c(=O)c2ccccc2n(Cc2ccc(C)cc2)c1=O | 1% | -22%
Cc1oc(-c2ccc(C(=O)NCc3ccccc3Cl)cc2)nc1CN1CCc2ccccc21 | -17% | -29%
Cc1ccc(NC(=O)CSc2ncccc2C(=O)Oc2cccc([N+](=O)[O-])c2)cc1Cl | -9% | i
CC(NS(C)(=O)=O)C(c1cccs1)N1CCN(c2ccccc2)CC1 (centres undefined) | -4% | i
O=C(c1ccco1)N1CCN(C(c2ccc(Cl)cc2)c2nnnn2Cc2ccccc2)CC1 (centres undefined) | -12% | -6%
O=C(Cc1c(Cl)cccc1Cl)N/N=C/c1cccnc1 | -13% | i
CC(C)C[C@H]1CN([C@@H](CC(C)C)CN2CCCC2CN2C(=S)NC[C@@H]2Cc2ccccc2)C(=S)N1CC1CCCCC1 (some centres undefined) | -6% | -17%
CCOc1ccc(-c2cc3c(=O)n(CC(=O)Nc4c(C)cccc4C)ccn3n2)cc1 | -4% | -10%
COc1ccc(-c2cccc3c2NC(=O)C3=O)cc1OC | 4% | -10%
CC(C)c1ccccc1NS(=O)(=O)c1cccs1 | 3% | -27%
CCCn1c(SCC(=O)N2CCCc3ccccc32)nnc1-c1ccccn1 | -25% | -15%
CCOc1ccccc1C1C(C(N)=O)=C(C)Nc2nc(-c3cccc(C)c3)nn21 (centres undefined) | -14% | -6%
Cc1ccsc1/C=C1/NC(=O)N(Cc2ccc(F)cc2)C1=O | -13% | i
CC(C)OCCCNC(=O)C(=O)N/N=C/c1ccc(OCc2ccccc2)cc1 | -7% | 0%
FC(F)(F)c1nnc2ccc(NCc3ccccc3)nn12 | -12% | -13%
Cc1cn([C@H](C(=O)NCCCCCCCCCCC(=O)N2CCN(C(=O)OC(C)(C)C)CC2)[C@@H](C)O)nn1 | -11% | i
C=Cc1cnc([N+](=O)[O-])n1C | -19% | -6%
COc1ccc(CN2C(=O)C(CC(=O)NCC3CCCCC3)CC(C(=O)N(C)C)=C2C)cc1 (centres undefined) | -23% | i
O=C(c1ccc2[nH]ccc2c1)N1CCOc2ccc(CN3CCN(c4ccccn4)CC3)cc2C1 | -26% | ?
CCOC(=O)c1cc(CC)sc1N1C(=O)CC(Sc2ccccc2C(=O)O)C1=O (centres undefined) | -1% | -5%
Cc1ccc(-n2ncc(C(=O)NC3CCCC3)c2C2CCN(C(=O)OC(C)(C)C)CC2)c(C)c1 | -1% | -2%
COc1ccc(NC(=O)Nc2cccc3c2O[C@H](CN(C)S(=O)(=O)c2cccs2)[C@@H](C)CN([C@H](C)CO)C3=O)cc1 | -21% | -5%
CCCCn1c(=N)n(CCCOc2ccc(F)cc2)c2ccccc21 | ? | ?
CCOC(=O)c1c[nH]c2c([N+](=O)[O-])cc(OC)cc2c1=O | 32%[activator] | -12%
Cc1nc2c(C(F)(F)F)cccc2c2c1CCS2 | -8% | -3%
O=S(=O)(c1ccc2c(c1)OCCCO2)N1CCNCC1 | -11% | -9%
C/C(=N/OCO/N=C(\C)c1ccccc1F)c1ccccc1F | -5% | -4%
CCOC(=O)CSc1nnc(C)n1N | -3% | nt
C/C(=N\NC(=O)c1ccccc1[N+](=O)[O-])c1c(O)cc(C)oc1=O | -13% | -10%

(more compounds)
SMILES | VACV Venus inh | Vaccinia mCherry
O=C(NC1CCCCC1)C(c1ccc(F)cc1)N(Cc1cccs1)C(=O)CN1C(=O)c2ccccc2S1(=O)=O (centres undefined) | -1% | -10%
O=C(O)/C=C/C(=O)N(CC1CCCO1)C1CC(=O)N(c2c(Cl)cccc2Cl)C1=O (centres undefined) | -23% | ?
FC(F)(F)c1cc(Cc2nc3ccccc3n2C(CCc2ccccc2)c2nc3ccccc3[nH]2)cc(C(F)(F)F)c1 (centres undefined) | 1% | -26%
O=C(O)c1ccc(Cl)c(S(=O)(=O)Nc2ccccc2C(=O)Nc2ccc(Cl)cc2)c1 | 9% | 6%
O=C1c2cccc3c(N4CCCCC4)ccc(c23)C(=O)N1c1ccc(O)cc1 | 61%[activator] | -6%
Cc1cc(=O)oc2c(CN3CCC(C)CC3)c(O)c(Cl)cc12 | 11% | i
COc1ccc2c(CC(=O)OCC(=O)N(C)c3c(N)n(Cc4ccccc4)c(=O)[nH]c3=O)coc2c1 | -15% | -16%
CCCCn1nnc(NC(=O)c2ccc(-c3cccc(Cl)c3)o2)n1 | -28% | -37%
Cc1cc(-c2nnc(SCC(=O)c3ccc(Cl)cc3)o2)no1 | -7% | -14%
Cc1ccsc1/C=C1\CCC(C2CCCC2)C1=O (centres undefined) | -11% | -12%
O=C(Nc1nc(-c2ccc(Cl)s2)cs1)c1ccco1 | -25% | -6%
O=C(NCC[C@H]1CC[C@H](NS(=O)(=O)c2ccccc2F)[C@@H](CO)O1)c1ccc(F)cc1 | -29% | -6%
Cc1nn(-c2ccccc2)c(-n2cccc2)c1C(=O)NCc1ccccc1Cl | -5% | -3%
Oc1ccc(C=NC2CCCCC2)cc1 | -16% | i

Bioassay records (PubChem BioAssay)
